# From PubChem
# 2A firefly: FMDV 2A StopGo reporter, firefly signal; HEK cells with a luciferase reporter of 2A StopGo recoding; Potency, µM (highest dose often 57.5 µM), for inactives: at the highest dose signal change, negative = less light; actives 0.23% (n = 120,000); AID 1745856; active = well fitted falling curve with a large enough effect; inconclusive = small, poorly fitted or top-dose-only effect; inactive = no such curve, though single readings can be large or run the other way; further: nearly all actives have a fitted effect of over 60% in size; overnight with compound
# StopGo RLuc: lowers the Renilla signal of an FMDV 2A StopGo reporter; HEK cells with a luciferase reporter of 2A StopGo recoding; Potency, µM (doses to about 57.5 µM), inactives show at the highest dose signal change, negative = less light; actives 0.32% (n = 120,000); AID 1745857; active means well fitted falling curve with a large enough effect; inconclusive means small, poorly fitted or top-dose-only effect; inactive means no such curve, though single readings can be large or run the other way; further: nearly all actives have a fitted effect of over 55% in size; overnight with compound
# * hit, by the source's call; ? = inconclusive; [ ] = dose if it differs, or a comment. On the % scale 0 is the no-effect control and ±100 the full control effect; potency means the concentration at half of the fitted maximal effect. Not a hit list. About 0.53% of those tested had a hit in this group.
SMILES,2A firefly,StopGo RLuc
CCCCCCCCCCCCCCCC(=O)OC(C)C,4%[11.5 µM],-5%
CC(OC(=O)CCCc1c[nH]c2ccccc12)C(=O)NC(N)=O (stereo not given),?,-23%
CCCc1c/c(=N\O)oc2cc(C)c3c(C)c(C)oc3c12,5%,9%
COc1cc(C2Nc3ccccc3-c3nnc(SCc4ccc(C)cc4)nc3O2)cc(OC)c1O (stereo not given),-10%,-3%
CCCOc1ccc(NC(=O)c2n[nH]c(=O)c3ccccc23)cc1OCCC,-8%,-10%
COc1ccccc1NC(=O)CSC1=Nc2ccccc2C2=NC(CCC(=O)NCc3cccs3)C(=O)N12 (stereo not given),-27%,12%
CCCOc1nc2ccccc2nc1N1CCC(C(=O)Nc2cccc(F)c2)CC1,49%[activator],-1%
O=S(=O)(Cc1csc(Cc2ccccc2)n1)Cc1ccccc1F,46%[activator],36%[activator]
CCCC12CN3CC(CCC)(CN(C1)C3c1c(C)[nH]c(=O)[nH]c1=O)C2=O (stereo not given),-7%,-10%
O=C1CC(Cc2ccc(Br)cc2)C(=O)N1c1ccc2ccccc2n1 (stereo not given),6%,-13%
CCC(=O)O[C@]1(C(=O)CCl)[C@@H](C)C[C@H]2[C@@H]3CCC4=CC(=O)C=C[C@]4(C)[C@@]3(F)[C@@H](O)C[C@@]21C,7%,8%
COc1ccc2c(c1)c1c(c(=O)n(-c3cc(Cl)ccc3C)c(=O)n1Cc1ccc(F)cc1)n2C,6%,-6%

# Later entries
SMILES,2A firefly,StopGo RLuc
CCCn1nc(C(=O)Nc2ncc(Cc3ccc(Cl)cc3)s2)ccc1=O,?,?
CCOC(=O)c1cc(-c2ccc(F)cc2)n(CCC(=O)NC2CCCCC2)c1C,8%,60%[activator]
O=C(Nc1cccc(Cl)c1)c1cnc2ccccc2n1,178%[activator],-5%
CC(On1nnc2ccc(Cl)cc21)C(=O)Nc1cc(Cl)cc(Cl)c1 (stereo not given),12%,1%
Cc1ccc(CNc2oc(-c3ccco3)nc2C#N)cc1,65%[activator],0%
CCn1nc(C(=O)OCC(=O)Nc2cc(C)on2)c2ccccc2c1=O,-13%,-5%
CCOc1cc(CNC(=O)c2ncoc2-c2cccc(C)c2)ccc1OC,-4%,-6%
CCCc1nn(C)c2c(=O)[nH]c(-c3cc(S(=O)(=O)Nc4ccccc4C)ccc3OCC)nc12,7%,265%[activator]
COc1cc(C#N)ccc1OC(C(=O)NC1CC1)c1ccc(F)cc1 (stereo not given),-1%,-3%
N#Cc1cccc(C(=O)NC(c2cccs2)C2CCCC2)c1 (stereo not given),13%,19%
O=C(C1=C(c2ccccc2)S(=O)(=O)CCO1)N(Cc1ccc(F)cc1)c1ccccn1,11%,?
COc1cccc(NC(=O)c2nnn(Cc3nc(-c4ccc(OC(C)C)cc4)oc3C)c2N)c1,28%,18%

# More compounds.
SMILES,2A firefly,StopGo RLuc
Cc1ccc(-c2nc3ccccc3s2)cc1S(=O)(=O)N1CCCC1,66%[activator],-1%
Cc1cccc(N2CCN(C(=O)c3ccccc3NC(=O)Cn3c(C)cc(C)c(C#N)c3=O)CC2)c1C,-3%,-8%
Cn1cnc2c1c(=O)n(CC(=O)Nc1ccccc1Oc1ccccc1Cl)c(=O)n2C,-9%,-10%
COc1cc(C2C(C#N)=C(SCc3ccccc3)NC3=C2C(=O)CCC3)cc(OC)c1OC (stereo not given),0%,0%
CC1=C(C(=O)OC(C)C)C(c2ccc(F)cc2)NC(=O)N1c1ccc2c(c1)OCO2 (stereo not given),-8%,-8%
COC(=O)c1ccc(Cn2c(SCC(=O)N(C)c3ccccc3)nc3ccccc32)cc1,4%,19%
CCCc1cc(=O)[nH]c(SCc2nc(-c3cccc(OC)c3)no2)n1,35%[activator],5%
CCc1ccccc1NC(=O)CSc1nnc2[nH]c(=O)c(Cc3ccc(C)cc3)nn12,2%,?
CCCC(=O)Nc1cc(-c2nc3cccnc3s2)ccc1C,96%[activator],26%
COc1cccc(N2CC(NC(=O)c3ccc(S(=O)(=O)N4CCCCC4)cc3)CC2=O)c1 (stereo not given),-21%,-8%
COCCn1c(SCC(=O)c2c[nH]c3ccccc23)nc2cc(C(=O)NC(C)C)ccc2c1=O,-16%,-14%
CCOCCCNc1oc(-c2ccc(S(=O)(=O)N3CCOCC3)cc2)nc1C#N,-12%,18%

# Remaining list, next part:
SMILES,2A firefly,StopGo RLuc
COc1ccc(OC(=O)c2ccc(C)c(I)c2)cc1,0%,0%
O=C(Nc1ccccc1O)c1ccc[n+]([O-])c1,8%,0%
CCN(C(=O)CSc1nc2ccccc2n1CC(=O)N(C)C1CCCCC1)c1ccccc1,0%,11%
CCOc1ccc(CNC(=O)Cn2c(=O)c3cccn3c3ccccc32)cc1,-7%,-8%
O=C(NCc1ccc(F)cc1)c1ccc2oc(=O)n(Cc3ccccc3)c2c1,-2%,30%
NC(=O)C1CN(CC(=O)Nc2cc(Cl)ccc2Cl)c2ccccc2O1 (stereo not given),-2%,-5%
N#Cc1ccccc1CN1CCN(c2oc(C3CC3)nc2C#N)CC1,-13%,-21%
CCCCn1c(=O)[nH]c(=O)c2c1nc(COC(=O)C(CC)c1ccccc1)n2C (stereo not given),-6%,3%
CCOc1ccccc1Nc1sc(C(=O)c2ccccc2)c(N)c1S(=O)(=O)c1ccc(C)cc1,-22%,0%
Cc1nc(CN2CCN(S(=O)(=O)c3ccc(F)c(F)c3)CC2)cs1,-16%,-17%
Cc1ccccc1CS(=O)Cc1cccc(F)c1 (stereo not given),-1%,15%
COc1ccc(CNC(=O)c2cc3c(-c4ccc(Cl)cc4)nn(C)c3s2)cc1,-17%,-15%

# (more compounds)
SMILES,2A firefly,StopGo RLuc
COC(=O)c1ccc(C(=O)OC)c(NC(=O)CN(c2ccccc2)S(=O)(=O)N(C)C)c1,25%,55%[activator]
CCOC(=O)C1CCN(C(c2ccccc2OC)c2c(O)cc(C)n(CCOC)c2=O)CC1 (stereo not given),-15%,17%
O=C(NCc1cccc(F)c1)C1CCN(c2nn3cc(-c4ccc(F)cc4)nc3s2)CC1,93%[activator],-14%
COc1cccc(NS(=O)(=O)c2ccc3[nH]c4c(c3c2)CCCCCC4)c1,-6%,317%[activator]
Cc1ccc(C)c(CN2C(=O)C(=O)c3ccccc32)c1,-7%,-10%
CC1CCN(C(=O)c2ccc(N(C)S(C)(=O)=O)cc2)CC1,13%,12%
CCOC(=O)c1[nH]c2ccccc2c1NC(=O)C12CC3CC(CC(C3)C1)C2,-16%,18%
Cc1noc(NS(=O)(=O)c2ccc(NC(=O)COc3ccccc3Br)cc2)c1C,-11%,16%
Cc1cccc(N(C)C(=O)CS(=O)(=O)c2cccc3nsnc23)c1,-2%,3%
CCOC(=O)Cn1c(=O)n(CC2CCCO2)c2nc(-c3ccc(OCC)cc3)nc(C(N)=O)c21 (stereo not given),3%,4%
Cc1ccc(CNC(=O)c2cc3sc(Cl)cc3n2C)cc1,-7%,-19%
CCOc1ccc(NC(=O)CN(C)S(=O)(=O)c2cnc[nH]2)cc1,-1%,-12%

# (more compounds)
SMILES,2A firefly,StopGo RLuc
O=S(=O)(Nc1nc2ccccc2nc1Nc1ccc(F)c(Cl)c1)c1ccc(F)cc1,16%,2%
CC(=O)N1CCCc2cc(S(=O)(=O)N3CCC(N(C)C(C)C)CC3)ccc21,-9%,-14%
Cn1ccc2cc(S(=O)(=O)N3CCCN(C(=O)Nc4ccc(Br)cc4)CC3)ccc21,17%,130%[activator]
COc1cc2c(cc1OC)-c1c(c(C(=O)NCCN3CCOCC3)nn1-c1ccc(F)cc1)C2,20%,28%
COc1ccc(NC(=O)Cn2cnc3ccc(S(=O)(=O)N4CCC(C)CC4)cc3c2=O)cc1Cl,-5%,33%[activator]
Cc1c(C(=O)NC(C)c2ccccc2)sc2ncnc(N(C)C3CCCCC3)c12 (stereo not given),-20%,4%
O=C(COc1ccc(F)cc1)Nc1ccc2c(=O)c3cccc(F)c3oc2c1,6%,5%
CC1=C(C(=O)Nc2cccc(C(F)(F)F)c2)C2(CCN(C(C)C)CC2)OC1=O,10%,22%
Cc1ccc(C)n1-c1c(C(=O)N2CCCC2)sc2ncccc12,0%,10%
Cn1c(C(=O)Nc2cccc3cccnc23)c(Cl)c2ccccc21,0%,-6%
CC(CC(=O)Nc1ccc(O)cc1)(C(=O)O)c1ccccc1 (stereo not given),23%,21%
Cc1ccc(NC(=O)c2sc3nc(-c4cccs4)ccc3c2N)cc1F,14%,-9%

# Compound profiles, as listed above:
# Record of `CC(CC(=O)Nc1ccc(O)cc1)(C(=O)O)c1ccccc1` (stereo not given) → 2A firefly: 23%; StopGo RLuc: 21%
# Record of `Cc1ccc(C)c(CN2C(=O)C(=O)c3ccccc32)c1` → 2A firefly: -7%; StopGo RLuc: -10%

# Continued:
SMILES,2A firefly,StopGo RLuc
CCOC(=O)c1c(S(=O)(=O)N2CCC(C(=O)Nc3cccc(C)n3)CC2)c(C)n(C)c1C,-10%,2%
CC(C)(C)CC(=O)N(Cc1cccc(Br)c1)C1CC1,-10%,-5%
S=c1[nH]nc(-c2n[nH]c3c2CCC3)n1/N=C/c1c2ccccc2cc2ccccc12,5%,?
Cc1ccc(S(=O)(=O)N2CCCN(C(=O)c3cncn3-c3ccccc3)CC2)cc1,-12%,-11%
COc1cc(-c2nc3n(n2)C(c2ccc(F)cc2)C(C(N)=O)=C(C)N3)cc(OC)c1OC (stereo not given),24%,0%
Cc1ccc2cc(/C=C/C(=O)NC3CCCC3)oc2c1,9%,32%[activator]
CC(=O)c1cn(CC(=O)N2CCOCC2)c2ccccc12,1%,-5%
CCOCCCNC(=O)c1c[nH]c2ccc(S(=O)(=O)N(C)c3ccc(Cl)cc3F)cc2c1=O,-14%,17%
COc1ccc(CCNC(=O)CSc2nnnn2-c2ccccc2OC)cc1OC,3%,0%
COCCSc1nc2c(c(=O)[nH]c(=O)n2C)n1CCCc1ccccc1,-2%,-3%
Cc1ccc(C(CNC(=O)c2cc(=O)c3ccc(Br)cc3o2)N2CCC(C)CC2)o1 (stereo not given),6%,-7%
CCCc1noc(CN2CCN(c3cc(C)nc(C(C)C)n3)CC2)n1,-17%,-25%

# Pulled by structure from the list above (four):
SMILES,2A firefly,StopGo RLuc
Cc1ccc(S(=O)(=O)N2CCCN(C(=O)c3cncn3-c3ccccc3)CC2)cc1,-12%,-11%
CCCc1noc(CN2CCN(c3cc(C)nc(C(C)C)n3)CC2)n1,-17%,-25%
CCOCCCNC(=O)c1c[nH]c2ccc(S(=O)(=O)N(C)c3ccc(Cl)cc3F)cc2c1=O,-14%,17%
COc1cc(-c2nc3n(n2)C(c2ccc(F)cc2)C(C(N)=O)=C(C)N3)cc(OC)c1OC (stereo not given),24%,0%

# Next results:
SMILES,2A firefly,StopGo RLuc
O=C(CN1CCN(Cc2ccc(F)cc2)C1=O)NCc1ccccc1Cl,64%[activator],12%
COc1ccc(-c2ccc(CCC(=O)O)n2NC(=O)c2ccccc2Cl)cc1,16%,-3%
COc1ccc(OC)c(NC(=O)N(C)CCc2c(C)nn(C)c2C)c1,0%,35%[activator]
Cc1nc(-c2ccc(S(=O)(=O)NCc3ccc(F)cc3)cc2)co1,28%,182%[activator]
CN(CC(=O)N1CCCC1)c1nc(-c2cccs2)nc2ccccc12,28%,25%
Cc1ccc2c(=O)cc(CSc3ccccc3)[nH]c2c1C,8%,-7%
CCn1cc(C(=O)N2CCN(c3cc(Cl)ccc3C)CC2)c2cc(OC)c(OC)cc2c1=O,-12%,-12%
CN(C)c1ccc(CNC(=O)CCCn2ccc3cc(S(=O)(=O)N4CCCC4)ccc32)cc1,-19%,29%
CCC(C)NC(=O)c1ccc(N(C)C2CCCCC2)cc1 (stereo not given),205%[activator],-3%[1.06 µM]
COCCN(C)CCCc1ccccc1,-3%,-6%
CCC(C)NC(=O)CCc1c(C)nc2c(c(C)nn2-c2ccc(C)cc2)c1C (stereo not given),0%,-13%
O=C(CN1N=C(c2ccccc2F)c2cc(Cl)ccc2S1(=O)=O)Nc1cc(F)ccc1F,-8%,-8%

# Going on with the list.
SMILES,2A firefly,StopGo RLuc
COc1cc(C)ccc1OCCSc1nc(-c2cccc(C)c2)nc2cc(=O)[nH]n12,-9%,-11%
CC(=O)N1CCN(C(=O)c2cc(-c3ccc(F)cc3)nc3ccccc23)CC1,118%[activator],55%[activator]
COc1ccc(CNC(=O)C2CCN(c3nc4ccccc4[nH]3)CC2)cc1OC,-21%,-11%
Cc1ccc(CNC(=O)Cn2c(=O)ccc3cc(S(=O)(=O)N4CCCC4)ccc32)cc1,-3%,-13%
COc1cc(Cl)c(C)cc1NC(=O)Cn1cc(S(=O)(=O)N2CCC(C)CC2)c2ccccc2c1=O,-9%,-10%
O=c1oc2ccccc2c(NC2CCCC2)c1NS(=O)(=O)c1ccc(Cl)s1,21%,17%
Cc1ccc(S(=O)(=O)N2CCN(Cc3cc(=O)n4nc(-c5ccccc5Cl)sc4n3)CC2)cc1,-6%,-6%
COc1ccc(S(=O)(=O)Nc2ccc3oc4c(c3c2)C(=O)CC(C)(C)C4)cc1,6%,110%[activator]
CC(NC(=O)c1ccsc1)C1CCCO1 (stereo not given),1%,13%
CCOc1ccc(NC(=O)N2CCC(CN3CCc4ccccc4C3)CC2)cc1,-20%,-10%
CCCN(CCC)C(=O)Cc1c(C)[nH]c2ccc(F)cc12,-15%,1%
